Source: PubChem BioAssay (National Center for Advancing Translational Sciences (NCATS))
VDR inhibitor = vitamin D3 receptor (human) inhibition. Potency, µM, inactives show max response, negative = inhibition, usual class: inhibitors. actives 0.93% (n = 400,000). AID 504847. P11473. VDR-SRC2-3 peptide fluorescence polarization, 2 h; active means well fitted inhibition curve with a large enough effect; inconclusive means small, poorly fitted or top-dose-only effect, or another doubt; inactive means no such curve, though single readings can be large or run the other way; further: series mostly up to about 120 µM
Target sequence (P11473 whole entry, looked up): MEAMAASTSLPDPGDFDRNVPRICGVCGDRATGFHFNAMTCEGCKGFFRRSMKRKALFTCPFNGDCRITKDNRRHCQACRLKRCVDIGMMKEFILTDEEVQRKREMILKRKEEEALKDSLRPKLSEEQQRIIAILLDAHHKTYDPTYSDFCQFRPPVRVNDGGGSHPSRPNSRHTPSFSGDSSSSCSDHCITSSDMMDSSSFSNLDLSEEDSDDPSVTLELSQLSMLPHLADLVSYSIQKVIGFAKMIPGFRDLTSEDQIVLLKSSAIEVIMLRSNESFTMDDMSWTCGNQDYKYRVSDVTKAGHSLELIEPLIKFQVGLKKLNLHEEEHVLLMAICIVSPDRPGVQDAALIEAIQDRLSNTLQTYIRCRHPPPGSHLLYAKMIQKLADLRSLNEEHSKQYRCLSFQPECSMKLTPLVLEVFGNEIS
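FP read-out; VDR + SRC2-3 coactivator peptide; 23 nl compound by pintool; 2 h RT incubation; reagents held at 4 deg C, protected from light.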
Starred values were filed as active, the others as inactive; ? = inconclusive; & = joins results of further samples. On the % scale 0 is the no-effect control and ±100 the full control effect; potency means the concentration at half of the fitted maximal effect. The list is partial, so the mix of outcomes need not match the whole.

Structure,VDR inhibitor
COC(=O)c1ccccc1NC(=O)NCc1ccc2c(c1)OCO2,2%
Cc1nn(Cc2ccc(Cl)cc2)c(C)c1NC(=O)CCCn1nc([N+](=O)[O-])c(Cl)c1C,3%
c1cc(CCCc2ccncc2)ccn1,-17%
CCOC(=O)N1CCN(C(=O)c2cc3cc(F)ccc3[nH]2)CC1,-12%
CC1Oc2ccccc2N(CC(=O)c2cccc(Cl)c2)C1=O (stereo not drawn),?
CC(C)CN1CCN(Cc2cnc(-c3ccc(Cl)cc3)nc2)CC1CCO (stereo not drawn),0%
CC(C)(CNC(=O)c1cc([N+](=O)[O-])ccc1N1CCC(Cc2ccccc2)CC1)N1CCOCC1,-4%
CCN(CC1CCCN(CCc2cccc(F)c2)C1)C(=O)c1cc2ccccc2o1 (stereo not drawn),-29%
CN(C[C@H](Cc1ccccc1)N(C[C@H](Cc1ccccc1)N(CC1(c2ccccc2)CC1)N=O)N=O)N=O,-12%
CC(NC(=O)c1cc2cc([N+](=O)[O-])ccc2oc1=O)C1CCCO1 (stereo not drawn),5%
Cc1nc2ccccc2n1CC(=O)c1ccccc1,5%
COc1cc(OC)c2c(-c3cccc(-c4ccc(C#N)cc4)c3)cc(=O)oc2c1,-6%&2%
C/C(=N\NC(=O)c1cccc(N/N=C(\C)c2ccncc2)c1)c1ccncc1,-20%
Cc1c(NC(=S)NC(C)(C)C)c(=O)n(-c2ccccc2)n1C,-1%
COc1ccc(Br)cc1CNC(=O)Cc1c(C(=O)O)[nH]c2ccc(Cl)cc12,-12%
COc1ccc(NC2CCCN(C(=O)c3ccccc3N3CCOCC3)C2)cc1OC (stereo not drawn),1%
O=C(NCCS(=O)(=O)N1CCCCC1)c1ccccc1,-14%
CCC1CN(C(=O)Nc2cc(OC)cc(OC)c2)c2ccccc2S1 (stereo not drawn),6%
CC(Oc1ccc(Cl)cc1Cl)C(=O)Nc1cccc(O)c1 (stereo not drawn),7%
CCCCn1c(N)c(N(CC(C)C)C(=O)c2cccc(-n3cnnn3)c2)c(=O)[nH]c1=O,-4%
O=C(Nc1ccc(Cl)c(Cl)c1)N(Cc1c[nH]c2ccccc12)C1CCCCC1,-12%
CCN(CC)CCN1C(=O)C(=O)/C(=C(/O)c2ccc(OC)c(OC)c2)C1c1ccccn1 (stereo not drawn),-8%
O=C1[C@H]2[C@@H](c3ccc(F)cc3)N3C(=O)N(c4cccc(Br)c4)C(=O)[C@@]3(Cc3ccc(Cl)cc3)[C@H]2C(=O)N1C1CCCCC1,8%
Cc1cccc(Cn2c(CN3CCC(C(=O)NCc4ccccc4Cl)CC3)cc3ccccc32)c1,8%
CCc1ccc(OCC(=O)NCCc2ccc3c(c2)OCCO3)cc1,9%
CCC(=O)N1CCc2cc(S(=O)(=O)N3CCN(c4ccccc4F)CC3)ccc21,-20%
CCc1ccccc1N/N=C(/C)c1c(O)cc(C)oc1=O,2%
O=C(NCCC(=O)N1CCN(c2cccc(Cl)c2)CC1)c1ccc(Br)cc1,-2%
COc1ccc(Cn2cnc3sccc3c2=O)cc1,-11%
COCCN(C(=O)COC(=O)c1ccccc1Nc1ccccc1)c1c(N)n(Cc2ccccc2)c(=O)[nH]c1=O,0%
CC(=O)Oc1ccc(C#C/C=C2\c3ccccc3C(=O)N2c2ccccc2)cc1,0%
CC(C)c1ccc2oc3nc(N)c(C(=O)O)cc3c(=O)c2c1,?
Cc1cccc2sc(N(CCCN(C)C)C(=O)CCS(=O)(=O)c3ccccc3)nc12,8%
CC(=O)c1ccc(NC(=O)CN2C(=O)CN(C)C(=O)c3ccccc32)cc1,3%
CCOC(=O)C1CCN(C(=O)CCn2c(=O)c3cccn3c3cccnc32)CC1,-4%
O=C(Nc1ccc(N2CCN(C(=O)c3ccco3)CC2)cc1)c1ccccc1F,1%
CCc1[nH]c(=S)c(C#N)c2c1CCCC2,?
CC1CCCN(CCCNS(=O)(=O)c2cc(Br)cc3c2N(C(=O)C2CC2)CC3)C1 (stereo not drawn),4%
Cc1c(C(=O)Nc2cc(S(=O)(=O)N3CCOCC3)ccc2N2CCN(C)CC2)oc2ccccc12,27%
C=CCn1c(SCCN2CCCCC2)nc2c1c(=O)[nH]c(=O)n2C,-5%
COc1ccc(CCN2CC(C(=O)NCc3ccccc3)CCC2=O)cc1 (stereo not drawn),-12%
Cc1cccc(NS(=O)(=O)c2cc3c4c(c2)CCN4C(=O)CC3)c1C,-7%
Cc1nc(-c2cccc(S(=O)(=O)N3CC(C)OC(C)C3)c2)cs1 (stereo not drawn),2%
COCCNC(=O)c1cc2cc(Br)cc(OC)c2oc1=O,8%
CC(=O)N/C(=C/c1ccccc1)c1ccccc1,4%
CCOC(=O)c1cc2c(ccn2C)n1Cc1ccccc1Cl,-2%
CC(=O)N1CCOc2ccc(S(=O)(=O)N3CCC(C(=O)Nc4ccc(C)cc4)CC3)cc21,-10%
COc1ccc(S(=O)(=O)N2CCOCC2)cc1NC(=O)CCc1nc2ccccc2c(=O)[nH]1,5%
COc1ccccc1N1CCN(C(=O)C(=O)c2cn(CC(=O)N3CCOCC3)c3ccccc23)CC1,21%
CN(C)c1ccc(NC(=O)c2cn(-c3ccccc3)nc2-c2cccs2)cc1,-28%
CC1CCCC(C)N1C(=O)COC(=O)CSc1ccc([N+](=O)[O-])cc1 (stereo not drawn),-30%
Cn1c(=O)c2c(-c3ccccc3)n3c(c2n(C)c1=O)C(c1cccc([N+](=O)[O-])c1)Nc1ccccc1-3 (stereo not drawn),9%
CCOC(=O)C(C(=O)OCC)C1OC(=O)c2cc3c(cc21)C(=O)OC3C(C(=O)OCC)C(=O)OCC (stereo not drawn),-22%
Cc1cc2c(ccc3c2no[n+]3[O-])nn1,11%
COc1cccc2cc(C(=O)Nc3ccccc3C(=O)N3CCOCC3)oc12,-3%
CCn1nc(C)c2c(-c3ccccc3)cc(=O)n(C(C)C(=O)NCc3ccccc3OC)c21 (stereo not drawn),3%
Cc1cccc(CCNS(=O)(=O)c2ccc3c(c2)oc(=O)n3C)c1,6%
CN1C(=O)/C(=C2/C=Cc3ccccc3N2CCCS(=O)(=O)O)SC1=S,0%
O=C(Nc1ccccc1C(=O)OCc1cc(=O)n2nc(C3CC3)sc2n1)c1cccc(F)c1,9%
Cc1ccc(CNC(=O)c2ccc3c(c2)S(=O)(=O)c2ccccc2C3=O)cc1,8%

Filtered by structure: those above with a Cl atom.
Structure,VDR inhibitor
Cc1nn(Cc2ccc(Cl)cc2)c(C)c1NC(=O)CCCn1nc([N+](=O)[O-])c(Cl)c1C,3%
CC1Oc2ccccc2N(CC(=O)c2cccc(Cl)c2)C1=O (stereo not drawn),?
CC(C)CN1CCN(Cc2cnc(-c3ccc(Cl)cc3)nc2)CC1CCO (stereo not drawn),0%
COc1ccc(Br)cc1CNC(=O)Cc1c(C(=O)O)[nH]c2ccc(Cl)cc12,-12%
CC(Oc1ccc(Cl)cc1Cl)C(=O)Nc1cccc(O)c1 (stereo not drawn),7%
O=C(Nc1ccc(Cl)c(Cl)c1)N(Cc1c[nH]c2ccccc12)C1CCCCC1,-12%
O=C1[C@H]2[C@@H](c3ccc(F)cc3)N3C(=O)N(c4cccc(Br)c4)C(=O)[C@@]3(Cc3ccc(Cl)cc3)[C@H]2C(=O)N1C1CCCCC1,8%
Cc1cccc(Cn2c(CN3CCC(C(=O)NCc4ccccc4Cl)CC3)cc3ccccc32)c1,8%
O=C(NCCC(=O)N1CCN(c2cccc(Cl)c2)CC1)c1ccc(Br)cc1,-2%
CCOC(=O)c1cc2c(ccn2C)n1Cc1ccccc1Cl,-2%

Following part:
Structure,VDR inhibitor
O=C(CSc1nc2c([nH]c3ccccc32)c(=O)n1-c1ccccc1)NCc1ccc(F)cc1,-12%
Cn1nnc(NCc2cc(Br)ccc2OCc2ccccc2F)n1,-8%
O=C(NCC12CC3CC(CC(C3)C1)C2)c1cc2nc(-c3ccccc3)cc(C(F)(F)F)n2n1,-6%
CC(C)(C)c1nc(NCCN2CCOCC2)c2nnn(Cc3ccccc3Cl)c2n1,4%
CC(NC(=O)CN(C)Cc1ccc(Br)cc1)c1ccccc1 (stereo not drawn),-11%
O=C(COC(=O)c1cnccn1)c1ccc(C2CCCCC2)cc1,3%
Cc1cccc(-n2c(O)c(/C=N/NC(=O)c3ccccc3Cl)c3ccccc3c2=O)n1,-4%
CCCC(=O)NC(NC(=S)Nc1c(C)n(C)n(-c2ccccc2)c1=O)C(Cl)(Cl)Cl (stereo not drawn),5%
CCN1C(c2ccc(F)cc2)=CS/C1=C(\C#N)c1nnc2n1-c1ccccc1SC2,-7%
CC1CCCCN1C(=O)Cn1c(=O)n(-c2ccc(F)cc2)c(=O)c2sccc21 (stereo not drawn),0%
CCOC(=O)c1ccc(NCc2nc3ccccc3n2C)cc1,1%
COc1ccc(F)cc1S(=O)(=O)NCCCn1ccnc1,4%
O=C(Cc1cccs1)Nc1nncs1,13%
CN(CCC1CCCCO1)C(=O)CCc1nnc(Cc2c[nH]c3ccccc23)o1 (stereo not drawn),-2%
Cc1ccnc(SCC(=O)c2ccc(Br)cc2)c1C#N,13%
Cn1cc(SCC(N)=O)c2ccccc21,-18%
O=C1CN(C(=O)Cc2ccc(F)cc2)C(c2ccccc2)c2cc(Cl)ccc2N1 (stereo not drawn),-3%
COc1cc(C2CC(=O)Oc3cc(OC)c(OC)c(OC)c32)cc(OC)c1OC (stereo not drawn),-8%
O=C(c1nn2cccnc2c1Cl)N1CCN(c2ccccc2)CC1,5%
CCCn1c(SCC(=O)NCCc2ccc(OC)c(OC)c2)nc2c1c(=O)n(C)c(=O)n2C,12%
COc1cccc([C@@H]2Oc3ccc(Br)cc3C(=O)[C@H]2OC(=O)Nc2ccc(C)c(Br)c2)c1,-12%
CCOc1ccc(N2CC(c3nc4ccccc4n3CCCCOc3ccc(OC)cc3)CC2=O)cc1 (stereo not drawn),9%
CCN(CC(=O)Nc1ccc(NC(C)=O)cc1)C(=O)/C=C/c1ccco1,-2%
CN(C)CCCN(C(=O)c1cccs1)c1nc(-c2ccccc2)cs1,-8%
O=C(N[C@@H]1CCC(=O)N(CC[C@H](Oc2ccccc2)c2ccccc2)CC1)OCc1ccccc1,?
Cc1ccc(N2CC(C(=O)Nc3ccc(S(=O)(=O)N4CCCC4)cc3)CC2=O)cc1C (stereo not drawn),-1%
CN(C(=O)/C=C/c1ccc([N+](=O)[O-])s1)c1ccccc1,-15%
O=[n+]1c2c(n([O-])c3c1CCCC3)CCCCC2,1%
Cc1nn(-c2ccccc2)c(C)c1/C=N\NS(=O)(=O)c1ccc(Cl)cc1,12%
CCC1C(=O)C[C@H]2CCN3C(=O)CCCC1C23 (stereo partly drawn),-8%&4%
CC1CCN(S(=O)(=O)c2cn(CC(=O)Nc3ccc(OC(F)(F)F)cc3)cn2)CC1,-19%
Cn1c(N)c(C(=O)COC(=O)C2CC(O)CN2S(=O)(=O)c2ccc(Cl)cc2)c(=O)n(C)c1=O (stereo not drawn),9%
O=C(NCc1nc2ccccc2[nH]1)c1ccco1,-10%
CCOC(=O)C1CCCN(S(=O)(=O)c2ccc3c4c(cccc24)C(=O)N3CC)C1 (stereo not drawn),18%
NCCCC(O)(P(=O)(O)O)P(=O)(O)O,8%&9%&8%
COc1ccc(N(C)S(=O)(=O)c2cccc(C(=O)NCC(c3cccs3)N(C)C)c2)cc1 (stereo not drawn),0%
Cc1ccc(N2C(=O)C3C(c4ccccc4)(C2=O)C3(c2ccccc2)c2ccccc2)cc1 (stereo not drawn),-17%
C=C(C)CN1CCN(S(=O)(=O)c2ccc(C)c(N(C)S(=O)(=O)c3ccc(C)cc3)c2C)CC1,15%
CC1Cc2ccccc2N1C(=O)COC(=O)c1c2c(nc3ccccc13)CCCCC2 (stereo not drawn),1%
COc1ccc(Cl)cc1NC(=O)NCc1cccnc1,-7%
O=C(OCC#CCSc1nnc(-c2ccccc2)o1)c1ccco1,8%
CC1(C)CC(C(=O)NCCC(c2ccccc2)c2ccco2)CCO1 (stereo not drawn),-28%
CNc1cnn(-c2ccc(C)cc2)c(=O)c1Sc1ccc(C)cc1,3%
C/C(=N\NC(=O)c1cc(C)nc2ccccc12)c1ccncc1,-12%
COC(=O)c1[nH]c2ccc(C)cc2c1NC(=O)CN1CCN(C(=O)c2ccccc2)CC1,-8%
COc1ccc(CNC(=O)CN2C(=O)C(C)N(c3ccc(C)cc3)C2=O)cc1 (stereo not drawn),-8%
O=C(CN(Cc1ccccc1)S(=O)(=O)c1ccc(F)cc1)NCc1ccncc1,-3%
CC(C)Nc1nc(Cl)nc(NC2CCCCC2)n1,-12%
COc1cc(C(F)(F)F)nc(-c2ccccn2)n1,4%
Nn1c(Cc2cccc3ccccc23)nnc1SC1CCOC1=O (stereo not drawn),-4%
O=c1c(-c2cccc(Cl)c2)nc2cncnc2n1Cc1ccc(F)cc1,-7%
COC(=O)c1sc(S(=O)(=O)N2CCC(C(=O)O)CC2)c(C(=O)OC)c1C,7%
CCOc1ccc(-c2nonc2NC(=O)c2oc3ccc(F)cc3c2C)cc1,13%
C[C@@H](C(=O)Nc1nc2ccccc2s1)N1C(=O)C2CC=CCC2C1=O (stereo partly drawn),-12%
